High-throughput results as filed in PubChem BioAssay.
VDR inh = inhibitors of human vitamin D receptor; P11473; VDR-SRC2-3 peptide fluorescence polarization, 2 h; Potency, µM, inactives show max response, negative = inhibition, hits mostly inhibitors; 400,000 compounds, 0.93% hits; AID 504847; active = well fitted inhibition curve with a large enough effect; inconclusive = small, poorly fitted or top-dose-only effect, or another doubt; inactive = no such curve, though single readings can be large or run the other way; also: series mostly up to about 120 µM
Target sequence (P11473 whole entry, looked up): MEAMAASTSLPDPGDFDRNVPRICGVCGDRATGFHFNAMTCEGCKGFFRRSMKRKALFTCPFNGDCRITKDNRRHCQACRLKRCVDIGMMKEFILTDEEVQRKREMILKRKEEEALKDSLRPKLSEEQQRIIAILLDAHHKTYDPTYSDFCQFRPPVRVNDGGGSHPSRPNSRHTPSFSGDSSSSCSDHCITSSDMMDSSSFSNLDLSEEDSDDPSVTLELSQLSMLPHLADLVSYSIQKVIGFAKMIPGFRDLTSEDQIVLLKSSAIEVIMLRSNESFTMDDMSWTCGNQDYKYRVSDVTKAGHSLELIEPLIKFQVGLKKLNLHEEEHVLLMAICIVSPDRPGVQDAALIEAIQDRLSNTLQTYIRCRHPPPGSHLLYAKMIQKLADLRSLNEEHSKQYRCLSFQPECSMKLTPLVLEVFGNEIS
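Fluorescence polarization assay measuring small-molecule disruption of VDR binding to the coregulator peptide SRC2-3. Compounds were pin-transferred (23 nl) into the reagent mix and incubated 2 h at room temperature before reading.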
* hit, by the source's call; ? = inconclusive. % is scaled to controls: 0 for no effect and ±100 for the full control effect; potency is read from the fitted curve at half-maximal effect. These rows are one share of the data; rates above refer to the full screens.

VDR inh	Structure
-2%	CCC(/C=C1\Oc2ccc(OC)cc2N1C)=C\c1sc2ccccc2[n+]1CCCS(=O)(=O)[O-]
-12%	O=C(NC1CCCCC1)N1CCc2ccccc21
?	CCc1nnc(NS(=O)(=O)c2ccc(NCc3ccccc3O)cc2)s1
-9%	COc1ccc(C2NC(=S)NC(C)=C2C(=O)Nc2ccccn2)cc1 (stereo not drawn)
24%	Cc1ccnc2nc(C(=O)Nc3cc(Cl)ccc3N3CCOCC3)nn12
-4%	CCOC(=O)c1c(NC(=O)CSc2nnnn2-c2ccccc2OCC)sc2c1CC(C)(C)NC2(C)C
3%	O=C(CCCOc1ccc(Cl)cc1Cl)N1CCc2ccccc2C1
-1%	Fc1ccccc1N1CCN(c2ncnc3onc(-c4cccc(Cl)c4)c23)CC1
8%	OCC[C@@H]1C[C@H](O)[C@@H](O)[C@]2(CCCO2)O1
-21%	O=C(O)CN1C(=O)C2C3CC(C2C1=O)C1C(c2ccccc2)c2sc(=O)[nH]c2SC31 (stereo not drawn)
0%	Nc1ccc(C(=O)N/N=C\C=C\c2cccc([N+](=O)[O-])c2)cc1
-13%	CCOc1ccccc1CNCC1CCCO1 (stereo not drawn)
-5%	O=C(CCN1C(=O)c2ccncc2C1=O)Nc1ccc(F)cc1
-6%	CCCC12CN3CC(CCC)(CN(C1)C3C(O)C(O)C(O)CO)C2=O (stereo not drawn)
-7%	Cc1ccccc1CNC(=O)c1ccccc1SCC(=O)NCc1ccco1
-10%	Cc1ccc(C)c(Cn2nnc3c(=O)[nH]c(C4CCN(C(=O)c5ccco5)CC4)nc32)c1
-7%	CCN(CC)C(=O)C1CCCN(C(=O)CCn2nnnc2CN2CCOCC2)C1 (stereo not drawn)
-4%	C=CCOC(=O)C1=C(C)Nc2nnnn2C1c1ccc(OC)cc1OC (stereo not drawn)
-19%	CCOC(=O)c1c(-c2ccccc2)nc2c(C)cccn12
7%	O=C(COC(=O)c1cccc(S(=O)(=O)N2CCN(c3ccccc3)CC2)c1)NCc1ccco1

VDR inh	Structure
-13%	O=C1N/C(=N/N=C/c2ccc(F)cc2)SC1c1ccccc1 (stereo not drawn)
-12%	CCOC(=O)N1CCN(S(=O)(=O)c2ccc(OCC)c3ccccc23)CC1
0%	Cc1ccc(C)c(Cn2c(=O)n(CCC(=O)NCc3ccc4c(c3)OCO4)c(=O)c3sccc32)c1
-2%	CC(=O)OCC(=O)Nc1c(C)cccc1C
16%	CCOc1ccccc1NC(=O)Cn1c(=O)c(OCC)nc2cnccc21
-8%	COc1ccc(-c2nc(Cn3c(SCc4ccc(C)cc4)nc4ccncc43)c(C)o2)cc1OC
13µM*	O=C1CCCCCN1Sc1ccccc1
0%	COc1ccc(C(=O)c2cn(Cc3cccc(C)c3)c3cc4c(cc3c2=O)OCCO4)cc1OC
-10%	O=C(NC1CCN(C(=S)Nc2ccccc2)CC1)C1CCCCC1
-16%	C/C(CC(=O)NCCN1CCOCC1)=N\NC(=O)c1ccncc1
18%	Nc1ccc(S(=O)(=O)N2CCC(Cc3ccccc3)CC2)cc1
-14%	N#C/C(=C\c1cccs1)C(=O)c1ccccc1
-3%	Cc1ccc(-c2nnn(CC(=O)N(CC(=O)NCC3CCCO3)c3ccc(F)c(Cl)c3)n2)o1 (stereo not drawn)
5%	Cc1ccc(-n2c(Cc3cccs3)nnc2SCC(=O)Nc2ccc(S(N)(=O)=O)cc2)cc1
-6%	O=C(Nc1nncs1)c1ccc(Br)c(S(=O)(=O)N2CCCC2)c1
-15%	CN(C(=O)COC(=O)c1cc(S(=O)(=O)N2CCCCC2)ccc1N1CCOCC1)C1CCS(=O)(=O)C1 (stereo not drawn)
-8%	COc1ccccc1CCNC(=O)c1cccc(NC(=O)CC2SC(N3CCCCC3)=NC2=O)c1 (stereo not drawn)
15%	CCn1c(SCC(=O)Nc2nc3ccccc3s2)nnc1-c1ccc(OC)cc1
8%	CCOC(=O)c1sc2nc(C)nc(N3CCN(c4ncccn4)CC3)c2c1C
-12%	COc1ccc2cc(C#N)c(NC(C)C)nc2c1

Rewritten as tab-separated lines: 2 of the compounds above
SMILES	VDR inh
N#C/C(=C\c1cccs1)C(=O)c1ccccc1	-14%
Cc1ccc(-c2nnn(CC(=O)N(CC(=O)NCC3CCCO3)c3ccc(F)c(Cl)c3)n2)o1 (stereo not drawn)	-3%

Remaining list, next part:
VDR inh	Structure
-5%	O=C(C(Cc1ccccc1)n1cccc1)N1CCCCCC1 (stereo not drawn)
40µM*	Cc1cc(Cl)n2c(nc3ccccc32)c1C#N
13%	O=C(OCC(=O)c1cccs1)c1ccc([N+](=O)[O-])o1
-9%	COc1ccc(NC(=S)N(CCc2c(C)[nH]c3ccccc23)Cc2ccco2)cc1
-23%	CCOC(=O)CNC(=O)C1COc2ccccc2O1 (stereo not drawn)
?	CS(=O)(=O)c1ccc2nc(NC(=O)C3CC(=O)N(c4ccccc4)C3)sc2c1 (stereo not drawn)
-7%	Cc1cc(NC(=O)Cn2ccsc2=N)c([N+](=O)[O-])cc1C
-22%	CCc1ccc(N2C(=O)CC(N(CC3CCCO3)C(=O)/C=C/C(=O)O)C2=O)cc1 (stereo not drawn)
18%	CCCCC(=O)Nc1nc(C)c(C(C)=O)s1
-29%	Cc1c(-c2ccccc2)cnc2c(C)cccc12
-18%	COCCN1C(=O)c2cc(C(=O)Nc3ccc(C)c(F)c3)ccc2C1Nc1ccc(C)c(F)c1 (stereo not drawn)
1%	Cc1ccc(NC(=O)c2cnc(N3CCN(c4ccccn4)CC3)c3ccccc23)c(Br)c1
2%	COc1cc(CCC(=O)NCc2ccc(Cl)cc2)cc(OC)c1OC
23%	COc1ccccc1C(=O)NCC(c1cccnc1)N(C)C (stereo not drawn)
-6%	CN(Cc1ccccn1)C(=O)CC1C(=O)NCCN1Cc1ccc(F)cc1Cl (stereo not drawn)
-21%	C[C@H]1O[C@H]1P(=O)(O)O
-3%	O=C1CCC(c2ccccc2)c2ccccc21 (stereo not drawn)
16%	O=C(COC(=O)Cc1c(Cl)cccc1Cl)NCCC1=CCCCC1
0%	O=C(Nc1c(Cl)ccc2nsnc12)c1cccnc1
10%	CCCCc1nc(SCCN2CCOCC2)c2c(=O)n(C)c(=O)n(C)c2n1

Looked up above:
O=C1CCC(c2ccccc2)c2ccccc21 (stereo not drawn) @ VDR inh: -3%
C[C@H]1O[C@H]1P(=O)(O)O @ VDR inh: -21%
COCCN1C(=O)c2cc(C(=O)Nc3ccc(C)c(F)c3)ccc2C1Nc1ccc(C)c(F)c1 (stereo not drawn) @ VDR inh: -18%
O=C(OCC(=O)c1cccs1)c1ccc([N+](=O)[O-])o1 @ VDR inh: 13%
CCc1ccc(N2C(=O)CC(N(CC3CCCO3)C(=O)/C=C/C(=O)O)C2=O)cc1 (stereo not drawn) @ VDR inh: -22%
Cc1ccc(NC(=O)c2cnc(N3CCN(c4ccccn4)CC3)c3ccccc23)c(Br)c1 @ VDR inh: 1%

(listing goes on)
VDR inh	Structure
-24%	O=S(=O)(c1ccccc1)N1CCCN(S(=O)(=O)c2ccccc2)CC1
-11%	COc1ccnc(Oc2ccccc2)c1C#N
-12%	CCc1ccccc1OCC(=O)OCC(=O)c1c(N)n(C)c(=O)n(C)c1=O
-5%	Nn1c(COc2ccccc2F)nnc1SCC(=O)NC1CCCC1
5%	O=C1CN(C(=O)COC(=O)CCc2ccccc2O)c2ccccc2N1
-7%	COc1ccc(-c2cc(C(=O)OCC(=O)Nc3ccc4c(c3)OCO4)c3ccccc3n2)cc1
-4%	COc1ccc(-c2csc3ncnc(N4CCN(c5cccc(Cl)c5)CC4)c23)cc1
-17%	COc1cc(C(=O)NNC(=O)c2ccc(NC(=O)C(C)(C)C)cc2)cc(OC)c1OC
-21%	C=CC[C@H](CC(=O)N(CCO)Cc1ccccc1)C(=O)N[C@H](COC(=O)[C@@H](CC=C)CC(=O)OC(C)(C)C)Cc1c[nH]c2ccccc12
12%	COc1ccc(Cn2ccc3nc(C)c(C(=O)N4CCN(c5ccccc5)CC4)cc3c2=O)cc1
-3%	CCn1cc(C2=NOC(C(=O)Nc3cc(C)nn3-c3ccccc3)C2)c(C)n1 (stereo not drawn)
13%	COC(=O)c1scc(-c2ccc(C)cc2)c1S(=O)(=O)Nc1ccc(F)cc1F
10%	CCCN1C(C(=O)c2ccccc2)=C(OC(=O)c2ccc(F)cc2)c2ccccc2S1(=O)=O
-10%	O=C(O)c1cc(N/N=C/C(Cl)=C/c2ccccc2)ccc1Cl
-2%	CC(=O)Nc1ccc(S(=O)(=O)N2CCN(CCN3CCOCC3)CC2)cc1Cl
-1%	CCOC(=O)c1c(C)[nH]c(C)c1S(=O)(=O)NCCc1cccs1
-9%	O=C(O)c1nn2cc(CCO)cnc2c1Cl
-17%	CS(=O)(=O)c1ccc(Cl)c(NC(=O)COC(=O)CNC(=O)c2ccccc2)c1
8%	CCCCNC(=O)c1cccc2c(=O)c(C)c(-c3ccccc3)oc12
-26%	CC(Sc1nnc(-c2ccccc2)c(-c2ccccc2)n1)C(=O)Nc1ncc(Cl)cc1Cl (stereo not drawn)

VDR inh	Structure
-5%	O=C(CSc1ccc(F)cc1)N1CCN(S(=O)(=O)c2ccccc2)CC1
-10%	CC/C(=N\NC(=O)c1ccc2c(c1)OCO2)c1ccccc1
8%	O=C(Nc1ccc2c(c1)OCO2)c1cc2n(n1)C(C(F)(F)F)CC(c1ccccc1)N2 (stereo not drawn)
-19%	Cc1ccc(C(=O)Cc2cc3ccccc3oc2=O)c(C)c1
8%	CCO[C@H]1OC(C(=O)N2CCOCC2)=C[C@@H](c2ccccc2)[C@@H]1CCCO
-11%	Cc1ccc(S(=O)(=O)Nc2ccccc2F)cc1C(=O)NCc1ccco1
19%	CC(=O)N1c2ccc(S(=O)(=O)N3CCC(C(=O)Nc4ccccn4)CC3)cc2CC1C (stereo not drawn)
-2%	Cc1cccc(OCC(=O)Nc2ccc(NC(=O)c3ccco3)cc2)c1
-9%	CCOC(=O)CCC(=O)N1CCNC(=O)C1
5%	OC(COc1ccc2cc(Br)ccc2c1)CN1CCCC1 (stereo not drawn)
-5%	COc1ccc(C(=O)OCC(=O)Nc2ccc(F)cc2F)cc1OC
-14%	CNc1nc2c(c(=O)n(C)c(=O)n2C)n1Cc1ccccc1
0%	COc1ccc2[nH]c3c(=O)n(N)c(=O)[nH]c3c2c1
-19%	CCCOc1ccc(N2C(=O)CC(N(Cc3ccc(OC)cc3)C(=S)Nc3ccccc3)C2=O)cc1 (stereo not drawn)
1%	Nc1c(-c2nc(-c3cccs3)no2)nnn1-c1ccccc1Cl
2%	Cc1c(N=Cc2cccnc2)c(=O)n(-c2ccccc2)n1C
?	Cc1cc(C)[n+](-c2ccc(Oc3ccccc3)c(S(=O)(=O)[O-])c2)[nH]1
-26%	C/C(=N/NC(=O)c1cccs1)c1c(C)[nH]n(-c2nc3ccccc3s2)c1=O
18%	COC1OC(COC(=O)c2ccccc2)C(OC(=O)c2ccccc2)C1OC(=O)c1ccccc1 (stereo not drawn)
5%	COc1ccc(N(C)S(=O)(=O)c2cccc(C(=O)NCC(c3ccco3)N3CCCC3)c2)cc1 (stereo not drawn)

Molecules listed so far with a nitro group on carbon (three):
VDR inh	Structure
0%	Nc1ccc(C(=O)N/N=C\C=C\c2cccc([N+](=O)[O-])c2)cc1
13%	O=C(OCC(=O)c1cccs1)c1ccc([N+](=O)[O-])o1
-7%	Cc1cc(NC(=O)Cn2ccsc2=N)c([N+](=O)[O-])cc1C

More structures follow:
VDR inh	Structure
2%	Cc1ccc(NC(=O)CN(C)CC(=O)N(CC(C)C)c2c(N)n(CC(C)C)c(=O)[nH]c2=O)c(C)c1
-11%	CCOC(=O)C1(Cc2cccc(OC)c2)CCN(CCO)CC1
6%	Cc1onc(-c2c(F)cccc2Cl)c1C(N)=S
13%	Cc1ccc(C(=O)Nc2ccc3c(c2)n(C)c(=O)c(=O)n3C)cc1
-1%	COc1ccc(-c2noc(CN(C)CCC3CCCCO3)n2)cc1 (stereo not drawn)
6%	CCN(CC)S(=O)(=O)c1cc(NC(=O)C(C)N2CCN(c3ccccn3)CC2)ccc1C (stereo not drawn)
-28%	CC(C)CCC[C@@H](C)[C@H]1CC[C@H]2[C@@H]3C(=O)C=C4C[C@@H](O)CC[C@]4(C)[C@H]3CC[C@]12C
10%	O=C(c1c(Cl)cccc1Cl)N1CCN(c2ncccn2)CC1
10µM*	CCOC(=O)C(=Cc1ccc(Br)cc1)C(=O)OCC
2%	CCOc1ccc(NC(=O)C(=S)NC2CCCCC2)cc1
1%	COc1ccc(C)cc1NC(=O)Cn1c(=O)ccc2cc(S(=O)(=O)N3CCC(C)CC3)ccc21
-15%	COc1cc(CCC(=O)Nc2ccc(C)c(S(=O)(=O)N(C)C)c2)cc(OC)c1OC
0%	Cc1cc(C)cc(N2C(=O)CC(Cn3nc(C)cc3C)C2=O)c1 (stereo not drawn)
79µM*	CC(=C\c1ccccc1)/C=C1/SC(=S)N(CCCC(=O)O)C1=O
-6%	CCn1c2ccccc2c2cc(C#N)c(N)nc21
-19%	C[C@@]12CC[C@H]3OC(=O)C=C3C1CC[C@@]13CC(CCC12)[C@](CO)(O[C@H]1O[C@H](CO)[C@@H](O)[C@H](O)[C@H]1O)C3 (stereo partly drawn)
-21%	COc1cc(/C=C(\C#N)c2nn(CCO)c(N)c2C#N)cc(OC)c1OC
-14%	CCOc1ccc(C(=O)N2CCc3cc(OC)c(OC)cc3C2COc2ccc3c(C)cc(=O)oc3c2)cc1OCC (stereo not drawn)

2 entries from above in another layout:
COc1cc(CCC(=O)Nc2ccc(C)c(S(=O)(=O)N(C)C)c2)cc(OC)c1OC
  VDR inh = -15%

Cc1cc(C)cc(N2C(=O)CC(Cn3nc(C)cc3C)C2=O)c1 (stereo not drawn)
  VDR inh = 0%
